# SRC2 inh: inhibits human steroid receptor coactivator 2; Q15596; HEK293 GAL4-SRC2 luciferase reporter, luminescence; inhibition, % at 9 µM; 0.17% of 370,000 active;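 active = inhibition above the mean inhibition of all tested compounds plus 3 SD, set per campaign, cut at about 52% in these data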;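 also: 0% = DMSO treated cells and 100% = cells given Gossypol at 36 µM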
# SRC1 inh: human NCOA1 inhibition | HEK293 GAL4-SRC1 luciferase reporter, luminescence | inhibition, % at 3.6 µM | 0.12% of 360,000 active;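 active = inhibition above the campaign mean plus 3 SD, with each screening campaign given its own cutoff, cut at about 60% in these data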;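 also: 0% = DMSO treated cells and 100% = gossypol at 36 µM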
# NR2F2 inh: blocks human COUP-TFII nuclear receptor; HEK293T NGFI-A luciferase reporter, luminescence; AID 686940; 0.7% of 370,000 active; P24468; inhibition, % at 8.6 µM;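 active = inhibition above a per-plate cutoff, mean inhibition of test wells between control levels plus 3 SD, cut at about 38% in these data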;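 also: cells cotransfected with COUP-TFII expression vector driving the NGFI-A reporter; 0% = median of COUP-TF2 test wells and 100% = reporter-only cells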
# * hit, by the source's call. Not all compounds are listed. The share of hits here may be higher or lower than overall.
# Each structure is followed by: NR2F2 inh, SRC2 inh, SRC1 inh
c1ccc(CN2CCC3CC2c2cc(N4CCOCC4)ccc23)cc1 (centres undefined)
  -2, -22, 4
O=C(Cn1c(C(=O)c2ccccc2)nc2ccccc21)c1ccc(Cl)cc1
  6, 6, 0
COc1ccc(-c2cn3ccccc3n2)cc1
  -45, -50, -132
C[C@H]1O[C@H]1P(=O)(O)O
  4, 6, 4
O=C(CCl)N1CCN(S(=O)(=O)c2ccc3ccccc3c2)CC1
  -1, 5, -17
O=c1c(Cl)c(O)ccn1C1OC(CO)C(O)C1O (centres undefined)
  -39, -2, -13
O=C1NN(c2ccccc2)C(=O)/C1=C/c1ccc(Sc2ccc(Cl)cc2)o1
  24, 7, -9
Cc1ccc(Cn2ccsc2=NC(=O)CCl)cc1
  6, 19, -12
C=C(CN(C)C)C(=O)c1ccc2c(c1)OCO2
  -7, -8, -7
CN(c1ccccc1)c1ccc(/C=C/[N+](=O)[O-])cc1
  18, -38, -17
O=C1NC[C@H](c2ccccc2)OC(=O)[C@@H](Cc2ccc(F)cc2)CC/C=C/C[C@@H]1CC(=O)N(CCO)Cc1ccccc1
  7, 9, -4
C#Cc1cccc(N2C(=O)C3C4C=CC(C3C2=O)C2C(=O)N(c3cccc(C#C)c3)C(=O)C42)c1 (centres undefined)
  10, -12, -9
COc1ccc(S(=O)(=O)n2c(C)nc3ccccc32)cc1C
  -34, -112, -22
CC(=O)c1cn(S(=O)(=O)c2ccccc2)c2ccccc12
  6, -5, -20
O=C(N/N=C\c1ccc(Sc2ccccn2)o1)c1cccc(F)c1
  -35, -17, -39

# Profiles as entered above. Order of screens: NR2F2 inh | SRC2 inh | SRC1 inh
# Shown for `O=C(Cn1c(C(=O)c2ccccc2)nc2ccccc21)c1ccc(Cl)cc1` = 6 | 6 | 0
# Shown for `O=c1c(Cl)c(O)ccn1C1OC(CO)C(O)C1O` (centres undefined) = -39 | -2 | -13
# Shown for `O=C1NN(c2ccccc2)C(=O)/C1=C/c1ccc(Sc2ccc(Cl)cc2)o1` = 24 | 7 | -9
# Shown for `C=C(CN(C)C)C(=O)c1ccc2c(c1)OCO2` = -7 | -8 | -7
# Shown for `c1ccc(CN2CCC3CC2c2cc(N4CCOCC4)ccc23)cc1` (centres undefined) = -2 | -22 | 4

# Three structures from above, arranged by length of the SMILES, low to high:
# Each structure is followed by: NR2F2 inh, SRC2 inh, SRC1 inh
C[C@H]1O[C@H]1P(=O)(O)O
  4, 6, 4
CN(c1ccccc1)c1ccc(/C=C/[N+](=O)[O-])cc1
  18, -38, -17
O=C1NC[C@H](c2ccccc2)OC(=O)[C@@H](Cc2ccc(F)cc2)CC/C=C/C[C@@H]1CC(=O)N(CCO)Cc1ccccc1
  7, 9, -4
